Autofluor counter: counter-screen for toxin protease inhibitors: compound fluorescence; 360,000 tested, 3.1% active; fluorescence intensity (concentration not given with the values); compound autofluorescence counterscreen, microsphere flow cytometry; stronger effect = higher value;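 active = at least 3 SD above the mean of all compounds, about 16000 in these data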;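 also: 100 nL of 1 mM stock went into each well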
Starred values were filed as active, the others as inactive. Some of the compounds tested; the hit share may differ from the screen's.

Molecule | Autofluor counter
COC(=O)[C@@]1(Cc2ccc(OC)cc2)[C@H]2c3cc(C(=O)N4CCCC4)n(Cc4ccc(S(C)(=O)=O)cc4)c3C[C@H]2CN1C(=O)c1ccccc1 | 4140
CC1(C(=O)NS(=O)(=O)c2ccc(C#N)cc2)CCN1C(=O)C1(c2ccc(Cl)cc2)CCC1 (configuration not stated) | 3840
COCCN(CCOC)Cc1cc(=O)oc2cc(OC)c(Cl)cc12 | 4338
O=C(c1[nH]c(C(F)(F)F)nc1-c1ccccc1)N1CCCN(Cc2ccc(F)cc2)CC1 | 5638
O=C(NCc1cccc(C(F)(F)F)c1)c1csc([C@@H]2C[C@H](O)[C@@H](CO)O2)n1 | 3831
CC(C)(C)Cc1c(-c2ccc(C#N)cc2)nc2ccc(Cl)cn12 | 2994
COc1cccc2sc(=NC(=O)CS(=O)(=O)c3ccccc3)n(C)c12 | 2827
O=C(CC1SCCNC1=O)NCc1ccccc1 (configuration not stated) | 3678
O=C(c1ccco1)N1CCN(C2CN(Cc3ccc(F)cc3)S(=O)(=O)C2)CC1 (configuration not stated) | 4429
Cc1ccc2nc(-c3cccc(Br)c3)c(Cc3ccccn3)n2c1 | 6128
COc1cccc(CNC(=O)c2cc3c(c(-c4cccc(-c5cccc(C#N)c5)c4)n2)[C@H](CCO)N(S(=O)C(C)(C)C)C3)c1 (some centres not stated) | 5361
Cc1ccc(S(=O)(=O)N(C)C[C@@H]2OCc3cn(nn3)CCCC(=O)N([C@@H](C)CO)C[C@H]2C)cc1 | 2978
COc1ccc(Cl)cc1-c1cc(C(=O)NCc2cccc(C(F)(F)F)c2)[nH]n1 | 3573
CCc1nc2c(OCCC3CCCCC3)cccn2c1N(C=O)Cc1ccccc1 | 2964
O=C(NCCN1CCC(n2c(=O)[nH]c3ccccc32)CC1)c1ccncc1 | 5137

Molecule | Autofluor counter
COCCNC(=O)C1(C)CCN(C(=O)c2sc(-c3ccccc3)nc2C)C1 (configuration not stated) | 3438
C[C@H]1CN([C@@H](C)CO)C(=O)CCCn2cc(nn2)CO[C@@H]1CN(C)S(=O)(=O)c1cccc(C#N)c1 | 3665
CCNC(=O)C1CCCN(C(=O)c2cccc3ccccc23)CC1 (configuration not stated) | 3406
COc1cc2c(cc1O)C(CSC)Cc1cc3c(cc1N(C)CC2)OCO3 (configuration not stated) | 2777
c1ccc2c(c1)CN(Cc1ccc3c(c1)OCO3)Cc1cnnn1-2 | 3544
Cc1cccc(NC(=O)c2ncn3c2C(=O)N[C@H](C)C3)c1 | 4167
CCC(c1nnnn1-c1c(C)cccc1C)N1CCCN(Cc2ccc(F)cc2)CC1 (configuration not stated) | 6320
C[C@@H]1CNC(=O)c2c(C(=O)Nc3ccc(CNC(=O)OC(C)(C)C)cc3)ncn21 | 3464
Cc1ccccc1Nc1n[nH]c(=S)s1 | 3376
COc1ccc(CCNC(=O)Nc2nc(C(N)CCc3ccccc3)cs2)cc1OC (configuration not stated) | 3730
O=P(c1ccccc1)(c1ccccc1)C(O)c1cccs1 (configuration not stated) | 3621
Fc1cccc(Cc2c(-c3ccco3)nc3ccc(Br)cn23)c1 | 5751
Cc1cncc(N2CCN(c3ccccn3)CC2)n1 | 3836
COc1cc(C)ccc1S(=O)(=O)NC(=O)C1(C)CCN1C(=O)c1ccc(C2CCCCC2)cc1 (configuration not stated) | 3177
CCN(CC)C(=O)C1=C(C)N(CCCN2CCCC2=O)C(=O)C(CC(=O)NCCCN(C)C)C1 (configuration not stated) | 3011

Structures above that have a Cl atom:
Molecule | Autofluor counter
CC1(C(=O)NS(=O)(=O)c2ccc(C#N)cc2)CCN1C(=O)C1(c2ccc(Cl)cc2)CCC1 (configuration not stated) | 3840
COCCN(CCOC)Cc1cc(=O)oc2cc(OC)c(Cl)cc12 | 4338
CC(C)(C)Cc1c(-c2ccc(C#N)cc2)nc2ccc(Cl)cn12 | 2994
COc1ccc(Cl)cc1-c1cc(C(=O)NCc2cccc(C(F)(F)F)c2)[nH]n1 | 3573

Additional records:
Molecule | Autofluor counter
COc1cccc(Nc2nc(C(N)CCc3ccccc3)cs2)n1 (configuration not stated) | 2722
Cc1ccc(Cc2c(-c3ccccc3)nc3cc(C)ccn23)cc1 | 4338
CCCC(=O)N1CCC1(C)C(=O)Nc1ccc(C)cc1 (configuration not stated) | 3973
CCCCCc1c(-c2cccc(OC)c2)ncn1CCc1ccccc1OC | 5563
COc1nc2ccccc2nc1N1CC1 | 5309
O=C(OCCO)c1c(-c2ccccc2)oc2c1C(OCCO)CCC2 (configuration not stated) | 4517
COc1ccc(-c2c(C(=O)c3ccc(Br)cc3)[nH]c(N)c2C(=O)c2ccccc2)cc1OC | 6431
OC[C@@H]1CN(Cc2ccncc2)C[C@H](n2cnc3c(N4CCOCC4)ncnc32)O1 | 3652
O=C1C(=Cc2cccc(Cl)c2)CCc2ccccc21 | 5631
COc1ccccc1S(=O)(=O)N(C)C[C@@H]1OCc2cnnn2CCCC(=O)N([C@@H](C)CO)C[C@@H]1C | 3403
Nn1c(SCC(=O)NC2CCCC2)nnc1C(F)(F)F | 3826
O=S1(=O)CC(N2CCCCC2)CN1C1CCCCC1 (configuration not stated) | 5784
Nc1ccn([C@@H]2O[C@H](CNCc3ccc(Oc4cc(-n5cccn5)ncn4)cc3)[C@@H](O)[C@H]2O)c(=O)n1 | 3816
C[C@@H]1CN([C@@H](C)CO)C(=O)c2cc(NS(C)(=O)=O)ccc2O[C@@H](C)CCCCO[C@H]1CN(C)Cc1ccc2c(c1)OCO2 | 3744
CCC(=O)N1Cc2cc(C(=O)NCc3cccc(F)c3)nc(-c3cccc(C4=CCCC4)c3)c2[C@H]1CCO | 5956

Molecule | Autofluor counter
COc1ccc(CCNC(=O)CNC(=O)N2CC(=O)Nc3ccccc32)cc1OC | 3538
CC(=O)N1Cc2cc(C(=O)NCc3cccc(F)c3)nc(-c3cccc(C4=CCCCC4)c3)c2[C@H]1CCO | 5626
CCN(CC)C(=O)c1csc(COCCO)n1 | 3297
CCc1nc2ccc(C(=O)Nc3cccc(OCC(=O)N(C)C)c3)cn2c1N(C)C(=O)c1ccncc1 | 3862
COc1cc(CCN=Cc2cc(Cl)cc(Cl)c2O)c([N+](=O)[O-])cc1OC | 6222
COc1cccc(CNC(=O)c2cc(S(=O)(=O)N3CCCCC3)ccc2C)c1 | 3504
CCCCC(=O)N(C)c1c(CC)nc2c(OCC(=O)C(C)(C)C)cccn12 | 2978
C#CCN(C[C@@H]1[C@@H](OC(=O)Nc2cccs2)[C@@H](OC(=O)Nc2cccs2)Cn2c(=O)ccc(=O)n21)S(=O)(=O)c1ccc(C)cc1 | 3954
O=C(NCc1cccc(C(F)(F)F)c1)c1csc([C@@H]2O[C@H](CO)[C@H](O)[C@H](O)[C@H]2O)n1 | 3926
CC(O)(c1ccc(F)c(F)c1)c1nc(-c2csc3ccccc23)cs1 (configuration not stated) | 3611
CCOC(=O)N(C)C[C@H]1OCc2cnnn2CCCC(=O)N([C@H](C)CO)C[C@H]1C | 3774
COC(=O)c1cc(C)nc(Nc2nc(C(N)Cc3ccc(Cl)cc3)cs2)n1 (configuration not stated) | 2957
CC1CCCCC1NC(=O)CN1CCC(NC(=O)C(C)(C)C)CC1 (configuration not stated) | 3670
C[C@H]1Cn2cnc(C(=O)N[C@H](C)c3ccccc3)c2C(=O)N1 | 3631
CCCCCCCCN1C(=O)[C@H](CC(=O)N2CCC(c3ccccc3)CC2)C[C@@]2(C(=O)OC)CCCCC=C12 | 5754

Molecule | Autofluor counter
CCc1nc2ccc(C(=O)N3CCCCC3)cn2c1N(CCC(C)C)CCN(C)C | 3734
CN(C(=O)CN1CCN(c2cc(-c3ccc(OCc4ccccc4)cc3)ncn2)CC1)c1ccccc1 | 2960
Cc1cccc(NC(=O)c2nc[nH]c2C(=O)N[C@H](C)CO)c1 | 2992
O=C(O)C1C=CCC(C(=O)O)C1 (configuration not stated) | 3838
CCCOc1ccc(F)cc1-c1cc(C(=O)NCc2ccc(C(F)(F)F)cc2)[nH]n1 | 3190
Cc1cccc(-n2c(C)nc3cc(C(=O)NCCN4CCOCC4)ccc32)c1 | 3773
CCCc1nc2c3ccccc3ccn2c1Cc1cccc(F)c1 | 6281
CC1(C(=O)Nc2cccc(NS(C)(=O)=O)c2)Cc2c(-c3ccc(C(N)=O)cc3)ccnc2O1 (configuration not stated) | 3923
COc1cccc(C(O)c2ncc(-c3cccc(C(F)(F)F)c3)[nH]2)c1 (configuration not stated) | 2949
CCOC(=O)C1(C)CCCN(C(=O)c2c(F)ccc(C)c2F)C1 (configuration not stated) | 3799
C(=C\c1ccccc1)/CN1CCN(C(CCc2ccccc2)c2nnnn2C2CCCC2)CC1 (configuration not stated) | 6558
COc1ccc(NS(=O)(=O)c2ccc(C)c(C(=O)NCCCn3ccnc3)c2)cc1 | 3787
CC(C)(C)n1nnnc1C(c1ccccc1OC(F)(F)F)N1CCN(C/C=C/c2ccccc2)CC1 (configuration not stated) | 5678
CC1=C(C#N)C(=O)NC1(C)O (configuration not stated) | 3405
Cc1ccc(NC(=O)C2(C)CCCN(C(C)C)C2)cc1C (configuration not stated) | 3038

Molecule | Autofluor counter
O=C(NCc1ccc(F)cc1)c1cc(C2CCCN(S(=O)(=O)c3ccccc3)C2)on1 (configuration not stated) | 4057
CC1(C)CC(=O)CC(C)(C)N1O | 3325
COc1ccccc1NC(=O)COC(=O)Cn1c(C)csc1=O | 3158
NC(=O)c1ccc(NCCc2ccco2)cc1 | 2641
COCCCn1cc(CN(C)C2CN(Cc3cn(CCCOC)nn3)S(=O)(=O)C2)nn1 (configuration not stated) | 4219
O=C(NCc1cccnc1)c1cc(C2CCCCN2S(=O)(=O)c2cccc3cccnc23)on1 (configuration not stated) | 4023
CC(=O)Oc1ccc(Cn2c(C)c(C(=O)NCc3cccc(C(F)(F)F)c3)sc2=O)cc1 | 3866
CC(=O)N1CCN(Cc2cc(=O)oc3ccccc23)CC1 | 5771
O=C1OC(Cc2ccccc2)(c2ccccc2)c2ccccc21 (configuration not stated) | 3359
OC[C@@H]1CN(Cc2cccs2)C[C@H](n2cnc3c(NC4CCCC4)ncnc32)O1 | 4048
CN1OC[C@@H]2CN(C(=O)C(C)(C)C)[C@H](c3ccc(-n4ccnc4)cc3)C[C@@H]21 | 4317
COCOCCn1cc(CN2CCS(=O)(=O)N(Cc3ccc(-c4ccc(OC)c(OC)c4)cc3)C(C)C2=O)nn1 (configuration not stated) | 3803
CCNC(=O)C1(C)CCN(C(=O)c2cc(F)ccc2C)C1 (configuration not stated) | 3895
O=C(NCC1CC1)c1cccc2c(-c3ccc(F)c(F)c3)coc12 | 3877
Cc1cccc(-c2ccc3[nH]c4c(c3c2)CCN2C[C@@H]([C@H](C)OC(=O)Nc3ccccc3C)[C@@H](N(C)C(=O)Nc3ccccc3C)C[C@@H]42)c1 | 5614

Quoted at random: 3 compounds from above, in no set order.
Molecule | Autofluor counter
CC(C)(C)n1nnnc1C(c1ccccc1OC(F)(F)F)N1CCN(C/C=C/c2ccccc2)CC1 (configuration not stated) | 5678
CC1(C)CC(=O)CC(C)(C)N1O | 3325
O=P(c1ccccc1)(c1ccccc1)C(O)c1cccs1 (configuration not stated) | 3621

Next section.
Molecule | Autofluor counter
CCNC(=O)C1(C)CCCN(C(=O)Cc2ccc(OC)c(OC)c2)C1 (configuration not stated) | 2783
N#Cc1ccc(S(=O)(=O)NC[C@H]2O[C@@H](n3ccc(N)nc3=O)[C@H](O)[C@@H]2O)cc1 | 3877
CN(C)S(=O)(=O)c1cccc(C(=O)N2CCN(S(=O)(=O)c3ccc4c(c3)OCCO4)CC2)c1 | 3834
C[C@H]1CN([C@@H](C)CO)C(=O)CCCn2cc(nn2)CO[C@@H]1CN(C)S(=O)(=O)c1ccc(Cl)cc1 | 2925
O=C1NCCN1CCNc1nc(NCc2ccccc2)nc2ccsc12 | 3906
CCC[C@H]1CN(Cc2cccnc2)C(=O)[C@@H]1CC(=O)Nc1ccc(Br)cc1 | 3819
COc1ccc(CCN2CC(C(=O)NCc3cn(C)nc3C)CCC2=O)cc1 (configuration not stated) | 4570
COc1ccc(Cc2c(-c3cccc(Cl)c3)nc3ccc(Cl)cn23)c(C)c1 | 7785
COc1ccc(-c2oc3c(c2-c2cnc(OC)nc2)C(O)CC3)cc1 (configuration not stated) | 4329
C[C@@H]1CN([C@@H](C)CO)C(=O)CCCn2nncc2CO[C@@H]1CN(C)S(=O)(=O)c1cccc(C#N)c1 | 3626
O=C(NC1CCCCC1)C(CCc1ccccc1)N1CCOCC1 (configuration not stated) | 5773
Cc1ccc(-c2nc3ccc(C)cn3c2Cc2cccc(Cl)c2)cc1 | 6488
Nc1[nH]c(C(=O)c2ccccc2)c(-c2ccc(C(F)(F)F)cc2)c1C(=O)NCc1ccc(Cl)cc1Cl | 4887
O=C(NCc1cccnc1)c1cc(C2CCCCN2C(=O)c2ccc3ccccc3c2)on1 (configuration not stated) | 3988
Nc1ncnc2c1ncn2[C@@H]1O[C@H](C(=O)NCC(F)(F)F)[C@@H](O)[C@H]1O | 5876

Molecule | Autofluor counter
CC1(C(=O)NCCCN2CCCC2=O)CCN1CCc1ccccc1 (configuration not stated) | 4092
CC(=O)c1ccc(OCc2nnn(CC(=O)NS(=O)(=O)c3ccc(C)cc3)c2-c2ccccc2)cc1 | 3544
Cc1c(C(=O)NCc2ccc3c(c2)OCO3)sc(=O)n1Cc1ccc(-c2ccccc2)cc1 | 4041
O=C(NCC(O)c1nc2ccccc2[nH]1)c1cc2ccccc2[nH]1 (configuration not stated) | 6006
C[C@H](CO)N1C[C@H](C)[C@@H](CN(C)S(=O)(=O)c2ccc3ccccc3c2)OCc2cnnn2CCCC1=O | 3264
CCN(c1ccc(OC)cc1)S(=O)(=O)N1CCCC(C(=O)NCc2ccc(OC(C)C)cc2)C1 (configuration not stated) | 4003
O=C(Nc1nnc([C@H]2C[C@H](O)[C@@H](CO)O2)s1)c1cccc(Oc2ccccc2)c1 | 2874

Screening data: PubChem, NMMLSC
